Assay outcomes from PubChem BioAssay.
Choline anaer gr: blocks anaerobic gram-negative growth on choline. Gram-negative bacterium anaerobic choline minimal medium, absorbance growth; stronger effect = lower value; many inactives read as strong as hits in the columns shown. calls only. 55,000 compounds, 0.2% hits;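 active means growth z-score on choline under -2 at 7 or 20 h with little or no fall on glycerol, limits in tiers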;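 further: stock transfer was 300 nL into about 50 µL; the organism is E. coli; final concentration not given here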
Choline anaer gr early: also measured in Choline anaer gr; calls as there; z-score; measured here: choline growth z-score, timepoint 1;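 score of optical density at 7 h as mean of two plates; lower means less growth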
An asterisk follows results filed as active; i = inactive; + = active, no number; & = joins results of further samples; ! = not active in a repeat.

Choline anaer gr	Choline anaer gr early	compound
i	0.12	CC1CCN(S(=O)(=O)c2ccc3c(c2)CCN3C(=O)NCc2ccccc2)CC1
i	-0.78	CCOc1ccc2c(c1)cc(C(=O)Nc1cccnc1)n2C
i	0.15	O=C(c1cc2c(s1)CCCC2)N1CCCN(c2nnc3ccc(Cl)cn23)CC1
i	-0.35	O=C(CC1CCCCC1)N1CCC2(CC1)Nc1ccc(Cl)cc1-n1cccc12
i	-1.1	CCOc1ccc(CCN2CNc3c(c(=O)n(C)c(=O)n3C)C2)cc1
i	1.6	COc1ccc(N(CC(=O)N2CC3CC(C2)c2cccc(=O)n2C3)S(=O)(=O)c2c(C)noc2C)cc1 (stereo unspecified)
i	-0.51	Cc1ccccc1-c1cc2n(C)c(C)c(CCC(=O)N3CCN(c4ccccn4)CC3)c(=O)n2n1
i	-0.16	CC1(C)O[C@@H]2C[C@H]3[C@@H]4CCC5=CC(=O)C=C[C@]5(C)[C@H]4[C@@H](O)C[C@]3(C)[C@]2(C(=O)CO)O1
i	-0.76	COCCNC(=O)c1nc(-n2cnnc2)ccc1Br
i	-0.94	O=C(NCc1ccccc1F)C1CCn2c(nc3ccccc32)C1 (stereo unspecified)
i	0.78	COc1cc(OC)cc(C(=O)N2CCCC(c3nnc(C(=O)Nc4ccc(Cl)cc4)s3)C2)c1 (stereo unspecified)
i	-0.65	Cc1ccc(-c2nc3nc(CN4CCCC4)cc(=O)n3[nH]2)cc1C
i	0.13	CCSc1nn(CC(=O)Nc2ccc3c(c2)OCCO3)c(N)c1S(=O)(=O)c1ccc(C)cc1
i	0.3	C=CCn1c(SCC(=O)NCCc2ccccc2)nc2sc3c(c2c1=O)CCC3
i	-2.7	O=C(Nc1ccc(F)cc1)c1nnc(C(=O)N2CCC(C(=O)NCc3ccccn3)CC2)s1
i	-0.19	COc1ccc(CNC(=O)CCCN2CCSc3ccccc32)c(OC)c1
i	1.3	Cc1ccc(C(=O)CSc2nc3cc(C(=O)NC4CCCC4)ccc3c(=O)n2CC2CCCO2)c(C)c1 (stereo unspecified)
i	-0.6	CCOC(=O)c1c[nH]c2c(OC)cc(OC)cc2c1=O
i	0.15	CCOc1ccc(-c2cc3c(=O)n(Cc4nc(-c5ccccc5)no4)ncn3n2)cc1
i	-1.2	CC1CC(=O)Nc2ccccc2N1C(=O)Cc1ccc(Cl)cc1 (stereo unspecified)
i	0.5&-1.8&0.27	COc1ccc(CCN2CCC(Nc3nc4ccccc4n3Cc3ccc(F)cc3)CC2)cc1
i	-0.19	CC1=C(C(=O)Nc2ccc(Cl)cc2)C2(CCN(Cc3ccccc3)CC2)OC1=O
i	-0.94	O=C(Nc1ccc(Br)cc1)C1CCCN(c2ccnc(-c3ccc(F)cc3)n2)C1 (stereo unspecified)
i	-0.28	COC(=O)c1cc(C)nc2c1c(=O)nc(SCc1nc(-c3ccccc3)oc1C)n2C1CC1
i	0.44	Cc1ccc(OCc2cc(=O)n3oc(C)cc3n2)c(NC(=O)c2ccc(C(C)(C)C)cc2)c1
i	-1.1	CC(=O)N1CCCSc2ccc(S(=O)(=O)NCCCN3CCOCC3)cc21
i	-2.3	Cc1ccc(C(=O)COC(=O)c2ccc(N3C(=O)c4c(C)nc5ccccc5c4C3=O)cc2)cc1
i	-0.62	Cc1cc2c(cc1S(=O)(=O)N1CCCC(C(=O)N3CCN(C)CC3)C1)OC(C)C(=O)N2 (stereo unspecified)
i	-1.8	CC(C)c1ccc(S(=O)(=O)Nc2cc(C(=O)O)cnc2N2CCC(Cc3ccccc3)CC2)cc1
i	1.9	CCCCn1c(SCc2nc(-c3ccc(C)cc3)no2)nc2cc3c(cc2c1=O)OCO3

Compounds listed so far that have two or more sulfur atoms:
Choline anaer gr	Choline anaer gr early	compound
i	0.13	CCSc1nn(CC(=O)Nc2ccc3c(c2)OCCO3)c(N)c1S(=O)(=O)c1ccc(C)cc1
i	0.3	C=CCn1c(SCC(=O)NCCc2ccccc2)nc2sc3c(c2c1=O)CCC3
i	-1.1	CC(=O)N1CCCSc2ccc(S(=O)(=O)NCCCN3CCOCC3)cc21

Later entries
Choline anaer gr	Choline anaer gr early	compound
i	-7.1	O=C(O)c1cc2c(cn1)[nH]c1ccccc12
i	0.86	Cn1cccc1CN1CCC(C(O)c2ccccc2)CC1 (stereo unspecified)
i	-1.1	CCN1CCN(c2ccc(C(=O)OC)cc2NC(=O)CCc2ccccc2)CC1
i	-0.44	Cc1coc(C)c1C(=O)CC1(O)C(=O)N(Cc2ccccc2)c2ccc(Br)cc21 (stereo unspecified)
i	0.24	COc1ccc(OC)c(C2=NN(c3nc(C)cs3)C(c3ccc(Cl)cc3)C2)c1 (stereo unspecified)
i	0.27	Cc1nn2c(S(=O)(=O)N3CCN(C4CCCCC4)CC3)c(C)nc2s1
i	-1.9	CCS(=O)(=O)N1CCN=C1N1CCCCC1
i	-1.1	CC(C)n1cnc2nc(CSc3ccc(NC(=O)Nc4ccccc4)cc3)cc(=O)n21
i	-0.56	O=C1CCCc2cc(S(=O)(=O)N3CCC(C(=O)NCc4cccnc4)CC3)ccc2N1
i	0	CCOC(=O)c1[nH]c(C)c(S(=O)(=O)NC(C)(C)CC)c1C
i	0.53	Cc1ccccc1C1CC(=O)c2c(C)nc(N3c4ccccc4CC3C)nc2C1 (stereo unspecified)
i	-0.41	C=CC[N+]1([C@H]2C[C@H]3[C@@H]4CC[C@H]5C[C@H](O)[C@@H](N6CCOCC6)C[C@]5(C)[C@H]4CC[C@]3(C)[C@H]2OC(C)=O)CCCC1
i	-0.39	Cc1ccc2[nH]cc(CCNC(=O)C3CCN(S(=O)(=O)c4ccc5c(ccn5C)c4)CC3)c2c1
i	0.1	Brc1ccccc1-c1nn2c(-c3cccnc3)nnc2s1
i	-1.1	COC(=O)c1ccccc1NC(=O)C1CCCN(C(=O)c2ccccc2F)C1 (stereo unspecified)
i	0.97	CCCOc1ccc(C2Nc3ccc(C)cc3[C@H]3OCCC[C@@H]23)cc1 (stereo partly specified)
i	0.67	Cc1ccc(S(=O)(=O)Nc2ccccc2SCc2cc(=O)n3cc(C)ccc3n2)cc1
i	-0.08	COc1cccc(CNCc2cccn2-c2sc(C)c(C)c2C(=O)O)c1
i	0.2	CCC(C(=O)NCCc1ccccc1OC)n1nc(C)c2sc3ccccc3c2c1=O (stereo unspecified)
i	-0.45	CCOC(=O)c1cc(NC(=O)N(C)c2ccccc2CC)c(C)nc1C
i	-1.2	CCc1onc(C)c1C1CCCN1Cc1cccc(C)c1 (stereo unspecified)
i	1.2	Cc1ccc(CN2c3ccccc3-c3nc(SCC(=O)Nc4ccccc4)ncc3S2(=O)=O)cc1
i	1.4	O=C(NCc1ccc(Cl)cc1)C1CCCN(c2nc3ccccc3n(Cc3ccccc3)c2=O)C1 (stereo unspecified)
i	-0.8	COc1cc(-c2ccno2)ccc1S(=O)(=O)N1CCC(N2CCCCC2)CC1
i	0.34	Cc1ccc(-c2cc3c(SCC(=O)Nc4nccs4)nccn3n2)cc1
i	0.25	CCOC(=O)COc1ccc(C)cc1C(=O)c1ccn2nc(-c3ccc(OC)cc3)cc2n1
i	-0.33	COCCN(CCC(=O)N1CCNCC1)C(=O)c1ccc(F)c(Cl)c1
i	-0.08	CCCn1cnc2cc(-c3noc(C(C)NS(=O)(=O)c4ccc(C)cc4)n3)ccc21 (stereo unspecified)
i	0.88	Cc1ccc2nc3c(cc2c1)CCN3S(=O)(=O)c1ccc(F)cc1C
i	0.57	Cc1cc(C)c(OCC(=O)N(Cc2ccccc2)C2CCS(=O)(=O)C2)c(C)c1 (stereo unspecified)
i	1.6	Cc1cc(NC(=O)c2cccc(OC(C)C)c2)cc(-c2nc3ncccc3o2)c1O
i	-0.35	CS(=O)(=O)N1CCC(n2cnc3cc(F)ccc3c2=O)CC1
i	-0.88	O=C(NC1CCCC1)c1cc(C2CC2)[nH]n1
i	-0.35	COCCNC(=O)N1CCCC(C)(C(=O)NCc2ccccc2)C1 (stereo unspecified)
i	0.58	COc1ccc(NS(=O)(=O)c2cc(N3C(=O)CCS3(=O)=O)ccc2OC)cc1OC
+!	-3.7*!	CO[C@H]1/C=C/O[C@@]2(C)Oc3c(C)c(O)c4c(O)c(c(/C=N/N5CCN(C)CC5)c(O)c4c3C2=O)NC(=O)/C(C)=C\C=C\[C@H](C)[C@H](O)[C@@H](C)[C@@H](O)[C@@H](C)[C@H](OC(C)=O)[C@@H]1C
i	-0.79	CN(C)CCNC(=O)CN1CCSc2ccccc21
i	0.14	Cc1ccccc1-c1nn2c(CSc3ccccc3)nnc2s1
i	0.19	Cc1ccc(N(CC(=O)Nc2cc(Cl)ccc2C)S(=O)(=O)c2c(C)nn(C)c2C)cc1
i	-2.8	Clc1ccccc1CSc1nc2ccncc2[nH]1
i	-1.4	O=C(Cn1nc2c(Sc3ccccc3)nc3ccccc3n2c1=O)Nc1cccc(Cl)c1
i	0.49	COc1cc([C@@H]2c3cc4c(cc3[C@@H](OC3OC5COC(C)OC5C(O)C3O)[C@H]3COC(=O)[C@H]23)OCO4)cc(OC)c1O (stereo partly specified)
i	0.81	Cn1c(=O)c(-c2noc(CCC(=O)Nc3ccccc3Cl)n2)nn(-c2ccc(F)cc2)c1=O
i	0.18	O=C(NC1CCCC1)c1cc2c(Cl)ccc3c2n1CCO3
i	0.65	Cc1cc(C)c2c(n1)SCCN2C(=O)Nc1ccc(C)c(Cl)c1
i	-0.37	O=C(NC1CCS(=O)(=O)C1)c1ccc(Cn2c(SCc3ccc(F)cc3Cl)nc3ccncc32)cc1 (stereo unspecified)
i	-1.1	CC(C)CCNC(=O)c1cnc2sc3c(n2c1=O)CCC3
i	0.19	O=C(Cn1cnc2c(-c3ccccc3)csc2c1=O)NCc1ccccc1
i	0.18	COCCn1cc2c3c(cccc31)CN(C(=O)NCC1CCCO1)CC2 (stereo unspecified)
i	0.28	O=S(=O)(c1ccc2c(c1)CCC2)N1CCC(c2noc(-c3ccccc3)n2)CC1
i	0.71	CNC(=O)c1nn(-c2ccc(Cl)cc2)nc1CO
i	-0.46	CCCCC[C@H](O)/C=C/[C@H]1C(=O)C[C@H](O)[C@@H]1C/C=C\CCCC(=O)OCC(O)CO (stereo partly specified)
i	-1.1	Cc1cccc(Nc2nc(C)cc(=O)[nH]2)c1
i	-0.52	COc1ccc(NC(=O)C2CCC(=O)N2S(=O)(=O)c2ccc(F)cc2)cc1OC (stereo unspecified)
i	-0.57	COC(=O)c1cccc(NC(=O)NCc2nnc(C(=O)Nc3ccc(OC)cc3)s2)c1
i	0.13	Cc1ccc(OCC(=O)Nc2ccnn2C2CCCC2)cc1C
i	-1.8	O=S(=O)(c1cn(Cc2noc(-c3ccc(Br)cc3)n2)cn1)N1CCOCC1
i	-0.85	COc1ccc(C2C3=C(CC(C)(C)CC3=O)Nc3onc(C)c32)cc1OC (stereo unspecified)
i	0.38	O=C(NCc1cccn1Cc1ccccc1)Nc1cccc(Br)c1
i	1.3	CN(C)CCNC(=O)c1cc2cc(S(=O)(=O)N(C)C)ccc2n1Cc1ccncc1

Two entries drawn at random from those above, as already listed:
Choline anaer gr	Choline anaer gr early	compound
i	-1.1	CC(C)n1cnc2nc(CSc3ccc(NC(=O)Nc4ccccc4)cc3)cc(=O)n21
i	0.57	Cc1cc(C)c(OCC(=O)N(Cc2ccccc2)C2CCS(=O)(=O)C2)c(C)c1 (stereo unspecified)

Next part
Choline anaer gr	Choline anaer gr early	compound
i	0.81	CCc1nc2onc(C)c2c(=O)n1CC(=O)OC
i	-1.4	O=C(NCc1ccccn1)c1cccn1-c1nnc(N2CCOCC2)s1
i	0.1	CCNC(=O)c1ccc(-c2nc3cc(NS(=O)(=O)c4cccc5nsnc45)ccc3n2C)cc1
i	0.77	CCCC(=O)Nc1nc2ccc(CCC(=O)Nc3cccc(C(=O)OCC)c3)cc2s1
i	0.82	Nc1nc2c(c(=O)[nH]1)C(c1ccccc1)CC(=O)N2 (stereo unspecified)
i	0.61	O=C(Cc1noc2ccccc12)N1CCc2ccccc21
i	-0.12	CC(C)NC(=O)CCn1c(=O)c2cc(Cl)ccc2n2c(SCC(N)=O)nnc12
i	-0.41	Cc1oc(-c2ccno2)cc1S(=O)(=O)Nc1cc(F)ccc1F
i	0.98	CC(C)Cc1cc(-c2nnc3sc(-c4ccccc4F)nn23)n[nH]1
i	-0.13	CN(C)CCCn1c(=O)c2c(ncn2CC(O)CO)n(C)c1=O (stereo unspecified)
i	0.2	CCCCC12CN3CC(C)(CN(C1)C3c1c(C)[nH]c(=O)[nH]c1=O)C2=O (stereo unspecified)
i	0.1	CCN(CC)S(=O)(=O)c1ccc2c(c1)nc(CN1CCN(C(=O)Nc3ccccc3)CC1)n2C
i	0.46	COc1ccc(-n2ccnc(OC)c2=O)c(C)c1
i	0.52	Cc1ccc(-c2nc(C3CCN(S(=O)(=O)c4ccc(F)c(F)c4)CC3)no2)cc1
i	-0.08	CCc1cc(C2CCCN2S(=O)(=O)c2c(C)noc2C)on1 (stereo unspecified)

Shown with two lines to a compound: entries from further up
Each structure is followed by: Choline anaer gr | Choline anaer gr early
> CC(C)Cc1cc(-c2nnc3sc(-c4ccccc4F)nn23)n[nH]1
  i | 0.98
> CN(C)CCCn1c(=O)c2c(ncn2CC(O)CO)n(C)c1=O (stereo unspecified)
  i | -0.13
> CCCCC12CN3CC(C)(CN(C1)C3c1c(C)[nH]c(=O)[nH]c1=O)C2=O (stereo unspecified)
  i | 0.2
> CCN(CC)S(=O)(=O)c1ccc2c(c1)nc(CN1CCN(C(=O)Nc3ccccc3)CC1)n2C
  i | 0.1

These rows are one share of the data; rates above refer to the full screens.
